Screening data (PubChem BioAssay)
YjeE inh: qHTS Assay for Inhibitors of YjeE. tRNA threonylcarbamoyladenosine biosynthesis protein TsaE (Escherichia coli (strain …. purified YjeE, fluorescence polarisation of a bound ADP probe. Potency, µM. hit rate 0.05% among 71,000. AID 605, 2007; active = well fitted falling curve; inconclusive = weaker or top-dose-only fall, or a rising curve; inactive = flat or poorly fitted curve;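 further: top concentration of the series not given in the record; excess ADP was the control for the full effect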
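Fluorescence polarization of a BODIPY Texas Red–ADP probe (2 uM) bound to purified YjeE (10 uM) was read after 15 min room-temperature incubation with compounds. Loss of polarization marks inhibitors; ADP serves as titrated control.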
Bst PK mod: Pyruvate Kinase. hit rate 1.2% among 51,000. AID 361, 2006. Potency, µM. partly purified Bacillus stearothermophilus pyruvate kinase, luminescence ATP production; ribose 5-phosphate activator present at AC10; in the data active means potency below about 11 µM; inconclusive means mostly about 12 µM to 25 µM; inactive means weaker than that;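 the screen sought inhibitors and activators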;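 further: potency means the concentration at half of the fitted maximal effect; scaled between full activation by ribose 5 phosphate and full inhibition by luteolin; about four in five hits inhibit and the cells do not say which; series up to 57 µM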
The depositor's hits bear a star; i = inactive; u = inconclusive; x = no result given. This is a subset; rates above refer to the full screens.

SMILES	YjeE inh	Bst PK mod
Cn1c(=O)c2c(nc(Cc3ccccc3)n2CC(=O)O)n(C)c1=O	i	x
Cc1cccc(-n2c(N)cc(=O)nc2SCC(=O)Nc2ccccc2)c1	i	>57
Cc1c(N2C(=O)SC(CC(=O)O)C2=O)c(=O)n(-c2ccccc2)n1C (stereo not given)	x	>26
Cc1ccc(C)n1C(Cc1ccccc1)C(=O)O (stereo not given)	i	>57
Cc1ccc(-c2cc(C(=O)NCc3ccccn3)no2)cc1	i	>57
COc1cc(/C=C(\C#N)C(=O)c2ccc(O)c(O)c2)cc(I)c1O	i	x
COCCn1c(=O)c(CCc2ccccc2)nc2cnc(N(C)C)nc21	i	x
CC(=O)NC(Cc1ccccc1)C(=O)N1CCN(C(=O)c2ccco2)CC1 (stereo not given)	i	>57
CC1=C(C(=O)Nc2ccccc2)C(c2ccc(N(C)C)cc2)NC(=O)N1 (stereo not given)	i	>57
CCOC(=O)C(C)(C)C(=O)C(C)(C)C(O)c1ccccn1 (stereo not given)	i	>57
Clc1ccc(-n2ncc3c(NCc4ccccn4)ncnc32)cc1	x	u
CN(C)c1ccc(/C=[N+](\[O-])C2SC(=S)N(C)C2(C)C)cc1 (stereo not given)	i	>57

Brought forward from above: seven compounds, followed by the next part.
SMILES	YjeE inh	Bst PK mod
COc1cc(/C=C(\C#N)C(=O)c2ccc(O)c(O)c2)cc(I)c1O	i	x
COCCn1c(=O)c(CCc2ccccc2)nc2cnc(N(C)C)nc21	i	x
CC(=O)NC(Cc1ccccc1)C(=O)N1CCN(C(=O)c2ccco2)CC1 (stereo not given)	i	>57
CC1=C(C(=O)Nc2ccccc2)C(c2ccc(N(C)C)cc2)NC(=O)N1 (stereo not given)	i	>57
CCOC(=O)C(C)(C)C(=O)C(C)(C)C(O)c1ccccn1 (stereo not given)	i	>57
Clc1ccc(-n2ncc3c(NCc4ccccn4)ncnc32)cc1	x	u
CN(C)c1ccc(/C=[N+](\[O-])C2SC(=S)N(C)C2(C)C)cc1 (stereo not given)	i	>57
CCN(CC)S(=O)(=O)c1ccc2oc(SCC3CN=C(c4ccc(OC)cc4)S3)nc2c1 (stereo not given)	i	>57
CC1(C)CC(=O)C=C(NCc2ccco2)C1	i	>57
N#Cc1c2c(c(NCCCN3CCOCC3)n3c1nc1ccccc13)CCC2	i	>57
Cc1ccc2c(c1)N(CCC(=O)NCc1ccccn1)C(=O)CO2	i	>57
CC(=O)Nc1nc2c(ncn2COCCOC(C)=O)c(=O)[nH]1	i	>57
CCCCOc1ccccc1Cn1c(=O)oc2ccc(C)cc21	i	>57
CCOC(=O)N1CCC(NC(=O)c2cc(-c3ccc(F)cc3)[nH]c2C)CC1	i	>57
Cc1ccc(S(=O)(=O)NC2(C(F)(F)F)C(=O)Nc3c2c(=O)n(C)c(=O)n3C)cc1 (stereo not given)	i	>57
COc1ccccc1S(=O)(=O)Cc1ccc(C(=O)NC2CCCCC2)o1	i	>57
Cc1ccc(C)c(N2CCN(C(=O)CCNC(=O)Cn3ccc4ccccc4c3=O)CC2)c1	i	>57
CCC(C)NC(=O)C1CCN(S(=O)(=O)c2cccnc2)CC1 (stereo not given)	i	>57
Fc1cccc2sc(Nc3nnc(-c4ccco4)o3)nc12	i	x
O=C(Nc1ccc(NC(=O)C2CCCCC2)cn1)c1ccco1	i	i
Cc1ccc(Cn2ccc(NC(=O)c3noc4c3CCCC4)n2)cc1	i	>57
NC(=O)c1nsc(C(=O)N(CCc2ccccc2)C(C(=O)NC2CCCC2)c2ccco2)c1N (stereo not given)	i	>57
CCc1nnc(SCc2ccc(C(=O)OC)o2)n1N	i	>57
CC1COC(c2cccn2Cc2ccccc2Cl)=N1 (stereo not given)	i	>57
COCCCn1c(C2CCCCC2)nc2oc3cc(OC)ccc3c(=O)c2c1=O	i	>57
CCOc1ccccc1COC(=O)c1cccc(-n2cnnn2)c1	i	>57
CCCn1c(-c2cccs2)nc2ccccc21	i	>57
Cc1c(C(=O)NCc2cccs2)oc2ccccc12	i	>57
O=C(COc1ccccc1)NCC(c1cccs1)N1CCOCC1 (stereo not given)	i	>57
O=C(CCCCCn1c(=O)[nH]c2ccsc2c1=O)NCc1cccs1	i	>57
C=CCNC(=O)CCCc1ccccc1	i	x
COc1ccc(N2C(=O)C3CCCN3C2c2ccc(C)cc2)cc1 (stereo not given)	i	x
O=c1c(-c2ccc(Cl)cc2)[n+]([O-])c2ccccc2n1O	x	>26
Cc1cc(NC(=O)CSc2ncnc3sc4c(c23)CCC(C)C4)no1 (stereo not given)	i	>57
CCSc1nnc(NC(=O)c2cc(C)oc2C)s1	i	>57
O=C(Cn1cc2c(n1)CCCC2)Nc1ccccc1Cl	i	x
C=CCn1c(Cc2cccs2)nnc1SCC(=O)Nc1ccc(C(=O)OCC)cc1	i	>57
COc1cccc(C2C(C#N)=C(N)Oc3cc(C)[nH]c(=O)c32)c1OC (stereo not given)	x	>26
CCCC(=O)Nc1ncnc2c1ncn2[C@@H]1O[C@@H]2COP(=O)(O)O[C@H]2[C@H]1OC(=O)CCC	i	>11
COC(=O)c1ccccc1NC(=O)C1CC(c2ccc(F)cc2)=NO1 (stereo not given)	i	>57
COc1ccccc1C(=O)Nc1ccccc1C(=O)N1CCCC1	i	>57
CC(C)OC(=O)CCc1nc2ccccc2[nH]c1=O	i	>57
CCCCCn1c(SCCN2CCOCC2)nc2c1c(=O)[nH]c(=O)n2C	i	>57
Cc1onc(-c2ccccc2Cl)c1C(=O)OCN1C(=O)c2ccccc2C1=O	i	x
CC(C)CN1CC[C@@]2(CCCN(C(=O)c3csnn3)C2)C1	i	x

Complete entries, looked up by structure. Order of screens: YjeE inh | Bst PK mod
CC(C)OC(=O)CCc1nc2ccccc2[nH]c1=O in the list: i | >57
O=C(Cn1cc2c(n1)CCCC2)Nc1ccccc1Cl in the list: i | x
O=c1c(-c2ccc(Cl)cc2)[n+]([O-])c2ccccc2n1O in the list: x | >26
Cc1onc(-c2ccccc2Cl)c1C(=O)OCN1C(=O)c2ccccc2C1=O in the list: i | x
